Assay outcomes (PubChem BioAssay)
HCMV NEC inh = cytomegalovirus nuclear egress complex inhibition | HTRF UL50-UL53 interaction, normalized percent inhibition | inhibition, % (concentration not given with the values) | hit rate 0.15% among 190,000 | AID 1918969;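 active = both replicates at 50% or more, plus weaker picks with an unusually low signal ratio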;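 note: stock transfer was 100 nL into about 20 µL; 0% = negative control wells and 100% = wells with untagged competitor protein; inactives centre near -12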
GIV-Gai inh = GIV-Galpha-i interaction inhibition | P08753 | Galpha-i3/FITC-GIV peptide fluorescence polarization, 90 min; hits give low values; scaled: aluminum fluoride 0%, vehicle 100% | percent of control (FP), % (concentration not given with the values) | hit rate 0.42% among 210,000;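 active = replicate mean at 85% of control or lower, very high polarization wells dropped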;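 note: wells of about 15 µL received 100 nL stock; the first replicate is given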
Target sequence (P08753 whole entry, looked up): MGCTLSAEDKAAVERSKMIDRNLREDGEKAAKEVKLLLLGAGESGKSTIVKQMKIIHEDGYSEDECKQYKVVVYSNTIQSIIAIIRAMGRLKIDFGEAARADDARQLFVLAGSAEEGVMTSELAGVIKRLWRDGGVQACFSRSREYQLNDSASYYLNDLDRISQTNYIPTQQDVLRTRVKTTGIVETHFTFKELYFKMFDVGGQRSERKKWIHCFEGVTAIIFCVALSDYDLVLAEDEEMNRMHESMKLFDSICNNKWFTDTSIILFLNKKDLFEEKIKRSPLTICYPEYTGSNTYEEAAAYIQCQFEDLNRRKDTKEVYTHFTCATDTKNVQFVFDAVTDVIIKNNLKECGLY
Sa growth 42C = blocks Staphylococcus aureus growth; S. aureus RN4220 growth, OD600, 20 h, 42 °C; hits give low values; relative growth, % (concentration not given with the values); hit rate 0.53% among 170,000; AID 720641;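 active = growth at 42 °C up to 50% and 20 or more points under that at 30 °C, or under 10% at both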;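 note: 300 nL library stock went into each well; scaled to the means of positive and negative controls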
Sa growth 42C second temp = second read-out of Sa growth 42C, no call of its own (marks repeat the call); relative growth, %; measured here: growth at 30 °C;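 optical density after 20 h as mean of two plates; 100% = untreated growth and lower means inhibition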
* = called active by the depositor; . = not tested or not shown; & = joins results of further samples.

Preview:
SMILES	HCMV NEC inh	GIV-Gai inh	Sa growth 42C	Sa growth 42C second temp
CC1(C)CC(CCNC(=O)c2ccc(-n3cnnn3)cc2)CC(C)(C)N1	-7	97	117	89
CN(C)S(=O)(=O)c1ccc(C(=O)OCCN=C2NS(=O)(=O)c3ccccc32)cc1	-4	101	97	91
Cn1c(Cc2nnc(NC3CCCCC3)s2)nc2ccccc21	-48	.	116	88
CC(C)CN(C(=O)CSc1ccc2c(c1)OCCO2)c1c(N)n(CC(C)C)c(=O)[nH]c1=O	-13	.	93	90
CC1(C)CC(=O)c2cc(OCC(=O)NC3CC3)ccc2O1	-8	102	124	85
Cn1cccc1Cc1nnc(SCC(=O)Nc2ccc3c(c2)OCCO3)n1CCc1ccccc1	.	102	120	94
N#CCSc1ncccc1-c1nc2ccccc2[nH]1	-10	100	80	61
CCC(=O)N1c2ccc(S(=O)(=O)N3CCC(C)CC3)cc2CC1C (stereo unspecified)	-21	104	106	92
O=C(O)C1Cc2ccccc2N1 (stereo unspecified)	-16	107	101	89
COc1cccc(C(=O)Nc2ccc(-c3cn4cccnc4n3)cc2)c1OC	-48	106	97	95
CN(C(=O)c1ccc(Cl)cc1Cl)C1CCS(=O)(=O)C1 (stereo unspecified)	4	.	115	94
FC(F)(F)Oc1ccc(-c2nnc(-c3ccncc3)o2)cc1	1	107	97	91
CC(C)c1ccc(OCC(=O)Nc2ccc(S(=O)(=O)Nc3ncccn3)cc2)cc1	10	111	93	92
Cc1ccc(-c2nnc3c4c5c(sc4ncn23)CCCC5)cc1	-4	104	.	.

All compounds of this part, repeating the preview:
SMILES	HCMV NEC inh	GIV-Gai inh	Sa growth 42C	Sa growth 42C second temp
CC1(C)CC(CCNC(=O)c2ccc(-n3cnnn3)cc2)CC(C)(C)N1	-7	97	117	89
CN(C)S(=O)(=O)c1ccc(C(=O)OCCN=C2NS(=O)(=O)c3ccccc32)cc1	-4	101	97	91
Cn1c(Cc2nnc(NC3CCCCC3)s2)nc2ccccc21	-48	.	116	88
CC(C)CN(C(=O)CSc1ccc2c(c1)OCCO2)c1c(N)n(CC(C)C)c(=O)[nH]c1=O	-13	.	93	90
CC1(C)CC(=O)c2cc(OCC(=O)NC3CC3)ccc2O1	-8	102	124	85
Cn1cccc1Cc1nnc(SCC(=O)Nc2ccc3c(c2)OCCO3)n1CCc1ccccc1	.	102	120	94
N#CCSc1ncccc1-c1nc2ccccc2[nH]1	-10	100	80	61
CCC(=O)N1c2ccc(S(=O)(=O)N3CCC(C)CC3)cc2CC1C (stereo unspecified)	-21	104	106	92
O=C(O)C1Cc2ccccc2N1 (stereo unspecified)	-16	107	101	89
COc1cccc(C(=O)Nc2ccc(-c3cn4cccnc4n3)cc2)c1OC	-48	106	97	95
CN(C(=O)c1ccc(Cl)cc1Cl)C1CCS(=O)(=O)C1 (stereo unspecified)	4	.	115	94
FC(F)(F)Oc1ccc(-c2nnc(-c3ccncc3)o2)cc1	1	107	97	91
CC(C)c1ccc(OCC(=O)Nc2ccc(S(=O)(=O)Nc3ncccn3)cc2)cc1	10	111	93	92
Cc1ccc(-c2nnc3c4c5c(sc4ncn23)CCCC5)cc1	-4	104	.	.
CN(C(=O)Cn1nc(C(F)(F)F)c2c1CCC2)C1CCCCC1	2	102	105	86
CC(NC(N)=O)C(=O)OCc1ccc(C(C)(C)C)cc1 (stereo unspecified)	-10	.	103	94
Cc1ccc(Nc2c(-c3cccnc3)nc3ccc(Cl)cn23)cc1	9	102	104	86
CCC(C)(C)NC(=O)c1ccc2c(c1)OCO2	-13	101	107	97
COc1ccc(C2=NN(CN3C(=O)C(=O)c4ccccc43)C(c3ccccc3Cl)C2)cc1 (stereo unspecified)	1	102	.	.
CCn1c(C)c(CCC(=O)Nc2ccc(C(=O)OC)cc2)c(=O)n2nc(-c3ccccc3OC)cc12	-35	102&97	76	85
Cc1cc2cc(CNC(=O)C(C)(C)Oc3ccc(Cl)cc3)ccc2n1C	.	100	94	52
O=C(NCC(c1ccc2c(c1)OCO2)N1CCOCC1)c1cccc(Cl)c1 (stereo unspecified)	.	94	110	91
c1ccc(Cc2nc3c4c5c(sc4ncn3n2)CCCCC5)cc1	-10	98	.	.
Cc1nc2cc(-c3noc(C4(c5ccccc5)CC4)n3)ccc2n(C)c1=O	-23	104	.	.
CC(=O)N1CCc2ccccc21	-5	107	100	86
CCC(N=c1cc(-c2ccc(OC)cc2)oc2ccc(C)cc12)C(=O)O (stereo unspecified)	.	104	108	68
Cc1cc(N2CCC(C(=O)N(CC(C)C)CC(C)C)CC2)n2nc(C)c(-c3ccc(Cl)cc3)c2n1	-1	107	98	85
Cn1c(=O)c(=O)n(C)c2cc(S(=O)(=O)NCCCN3CCN(Cc4ccccc4)CC3)ccc21	-8	104	90	90
Cc1cccc(S(=O)(=O)NCCc2csc3nc(-c4cccc(F)c4)nn23)c1	4	107	.	.
CCN(/C(N)=N/c1nc(C)cc(C)n1)c1ccccc1	-32	111	90	82
NS(=O)(=O)c1ccc(CNC(=O)COC(=O)C2CC3C=CC2C3)cc1 (stereo unspecified)	-35	.	87	96
CCOc1ccc(-c2nc(SCC(=O)Nc3ccc4c(c3)OCO4)c(-c3ccc(F)cc3)[nH]2)cc1	-1	101	111	85
CSc1sc(-c2nc(C)cs2)c(C)c1-c1ccnc(=S)[nH]1	-105	105	87	83
Cc1ccc(-n2c(C)cc(/C=N/O)c2C)cc1	-14	108	80	95
CCCc1[nH]nc2c1C1(CCN(C(C)=O)CC1)C(C#N)=C(N)O2	-15	107	84	76
COCc1cnc(C)nc1N	12	.	84	98
CCC(Cc1ccccc1)NC(=O)C1CC1 (stereo unspecified)	-10	100	110	78
Cc1cc(Nc2cccc(C(F)(F)F)c2)nc2ccc(NC(=O)c3cncc(Br)c3)cc12	.	110	122	88
COc1ccc(NC(=O)CSc2nc3nc(C)cc(C)n3n2)cc1	.	103	84	95
N#CC1c2ccc(Br)cc2C=CC1c1ccccc1 (stereo unspecified)	-8	.	85	89
Cc1nc2c(C(=O)NCCc3ccccc3)c[nH]n2c(=O)c1Cl	-22	105	88	88
CCC(C)(CC(=O)O)Cc1nc2ccccc2s1 (stereo unspecified)	-32	.	104	99
COc1ccc(NC(=O)C2CCCN(S(=O)(=O)c3ccc4c(c3)oc(=O)n4C)C2)cc1Cl (stereo unspecified)	.	105	106	94
CCN(CC(=O)Nc1ccc2c(c1)OCCO2)C(=O)c1cnc(SC)n1-c1ccccc1	-7	.	92	93
COC(=O)CC1=CC(SCC(=O)Nc2ccccc2)=Nc2ccccc2N1	-9	113	.	.
Cc1nnc(SCC(=O)c2ccc3c(c2)OCCO3)o1	-5	106	90	90
COC(=O)c1ccc(NC(=O)COc2ccc3ccccc3c2Br)cc1	0	.	87	98
Cc1nc2nc(NC(=O)c3ccc(C(C)(C)C)cc3)[nH]n2c(=O)c1Cc1ccccc1	13	98	89	92
COc1cc(NC(=S)N(N)CCO)c(OC)cc1Cl	-11	108	98	95
O=C(Cn1c2ccccc2c(=O)c2ccccc21)Nc1ccc(OC(F)(F)F)cc1	3	107	.	.
Cc1cccc2nc3c(nc12)CCCC3	-43	106	72	42
N/C(=N/O)C(c1ccccc1)c1ccccc1	10	106	108	102
OC(CSc1nccc(-c2ccc3c(c2)OCCO3)n1)C(F)(F)F (stereo unspecified)	-2	99	119	93
COc1ccc(CCn2c(C)cc(C3=NNC(=NC4CC4)SC3)c2C)cc1	-11	.	93	86
O=C1CC(=O)N(c2ccccc2)N1c1ccccc1	.	104	85	50
CC1CN(CC(=O)NC2CCCCC2)CC(C)O1 (stereo unspecified)	-18	.	94	91
O=C(NCc1ccco1)C1CCC(N2C(=O)c3ccccc3C2=O)CC1 (stereo unspecified)	-28	102	110	103
CC(C)(C)c1nnc(NC(=O)Nc2ccc3ccccc3n2)s1	-18	105	.	.
CC(C)(C)CC(C)(C)NC(=O)c1cccnc1Oc1ccccc1	.	100	99	85
CCC(Sc1nnc2c3ccccc3n(C)c2n1)C(=O)Nc1nnc(C(F)(F)F)s1 (stereo unspecified)	-17	103	90	77
Going on with the list.
SMILES	HCMV NEC inh	GIV-Gai inh	Sa growth 42C	Sa growth 42C second temp
Cc1cc(C)c2oc(C(=O)Nc3c(C(=O)c4ccccc4)oc4ccccc34)cc(=O)c2c1	-14	103	110	88
CCOC(=O)Cn1c(=O)oc2cc(S(=O)(=O)N3CCN(c4cccc(C)c4)C(C)C3)ccc21 (stereo unspecified)	-30	98	104	88
CCOC(=O)c1cn2cc(Cl)ccc2n1	-14	.	104	99
Cc1cc(Nc2ccc(C(=O)O)cc2)c2cc(Cl)ccc2n1	-68	112	83	79
O=C(O)C12CCCC(CBr)(CCC1)C2	-17	.	117	91
O=C(c1ccc(N2CCCC2=O)cc1)N(Cc1ccco1)Cc1cccs1	-8	.	96	97
CN1C(=O)CC(C(=O)Nc2ccccc2F)SC1=Nc1ccc(Cl)cc1 (stereo unspecified)	-14	98	92	78
Nc1nc2c(-c3ccc(Br)cc3)nnn2c2ccccc12	-31	101	80	71
Clc1ccc(-c2ncnn2-c2ccccc2)c(Cl)c1	.	108	123	88
CCO/C=C1/SC(=S)N(c2cc(OC)cc(C(F)(F)F)c2)C1=O	-1	106	140	77
Cc1cc(-c2ccc(C)c(S(=O)(=O)NC3CCCCC3)c2)on1	.	105	78	85
Cc1ccc(-c2cc(C(=O)N(Cc3ccc(C(C)C)cc3)C3CCS(=O)(=O)C3)no2)cc1C (stereo unspecified)	-8	95	.	.
Nc1noc2c1C(c1ccc(F)c(Oc3ccccc3)c1)C1=C2CCCC1=O (stereo unspecified)	-7	103	92	99
COc1cc(SC)ccc1C(=O)N1CCc2ccccc2C1	0	.	120	84
Cc1sc2c(c1C)c(=O)n(-c1ccc(Cl)cc1)c(=O)n2Cc1c(F)cccc1Cl	1	106	100	84
c1ccc(CNC2CCCc3c2[nH]c2ccc(-c4ccccc4)cc32)cc1 (stereo unspecified)	.	105	39	1
O=C(NC1CCCC1)C1CCN(c2ccc(-c3ccc(F)cc3)nn2)CC1	3	99	.	.
CCN(CC)C(=O)Cc1cc(OC)c(OC)cc1Br	-26	.	119	86
O=C(CSc1c2c(nc3ccc(Cl)cc13)CCCC2)NCc1ccccn1	.	104	93	83
O=C(CSc1nc(-c2ccc(F)cc2)cc(C(F)(F)F)n1)NCc1ccccc1	-6	104	93	91
CCOC(=O)c1sc(SCC(=O)c2ccc(Cl)cc2)nc1C	0	98	100	105
O=C(CN1CCN(CC(=O)c2ccccc2)CC1)c1ccccc1	-10	98	95	82
NC(=O)C1CCN(c2csc3ccc(F)cc3c2=O)CC1	.	103	94	90
COc1cccc(CC(C)C(N)=O)c1 (stereo unspecified)	4	.	73	98
Cc1cccc(-c2nc3c4ccccc4nc(NCc4ccccc4Cl)n3n2)c1	25	110	108	88
CN(C)S(=O)(=O)c1ccc(S(=O)(=O)N2CC=C(c3ccc(F)cc3)CC2)cc1	-4	101	98	97
O=C(O)C1CCCCC1C(=O)Nc1ccc2c(c1)OCCO2 (stereo unspecified)	-15	.	105	89
O=C(NCCNc1nccc(C(F)(F)F)n1)Nc1ccccc1Cl	-26	106	92	83
CN1CCN(Cc2cc3sccc3n2Cc2ccc(F)cc2)CC1	-2	102	112	59
C=CCn1c(SCc2ccc(C(=O)NCCO)cc2)nc2ccccc2c1=O	3	105	89	85
CCn1c(/C=N/NC(=O)Cc2ccccc2)nc2ccccc21	-36	95	81	76
Cc1cc2nn(-c3ccc(Cl)cc3)nc2cc1NC(=O)C(C)C	8	109	104	105
CCn1c(C)c(C)c2cc(C(=O)NCCCN3CCCCC3C)ccc21 (stereo unspecified)	.	107	109	92
COc1cc(OC)cc(-c2nc3ccccc3c(=O)n2NC(=O)/C=C/c2ccccc2Cl)c1	-9	101	.	.
COc1cccc(CNc2cccc(F)c2)c1	-13	103	110	81
O=c1c(=O)n(-c2ccc(F)c(F)c2)ccn1Cc1ccc(F)cc1Cl	-13	99	114	88
Cc1nnc(SCC(=O)N2CC3(C)CC2CC(C)(C)C3)[nH]c1=O (stereo unspecified)	6	.	41	42
COc1ccc(-c2cc(C(F)(F)F)nc(SCCC(=O)N(C)Cc3ccccc3)n2)cc1	.	102	109	94
COC(=O)c1ccc(Cl)cc1OC(=O)c1ccccc1	8	.	140	96
O=C(NCCCN1CCOCC1)c1ccc2c(=O)n(CCCN3CCCC3=O)c(=S)[nH]c2c1	.	100	108	90
COc1ccc2oc(C)c(C(N)=O)c2c1	-21	101	91	85
CCOC(=O)c1ccccc1NC(=O)NCc1cccn1Cc1ccc(F)cc1	-1	107	106	85
COc1ccccc1-c1cc(C(=O)NCCc2ccccc2)no1	-16	103	96	85
O=C(CN1C(=O)CCc2cc(S(=O)(=O)N3CCCC3)ccc21)NCCc1nc2ccc(F)cc2[nH]1	-16	106	.	.
CCc1ccccc1NC(=O)CCSc1nc(-c2ccco2)cc(C(F)(F)F)n1	-32	102	82	84
CN(C)S(=O)(=O)c1ccc(SCC(=O)NC2CCCc3ccccc32)nc1 (stereo unspecified)	-10	.	125	96
O=C(/C=C/c1ccc(Cl)cc1)NCc1ccccc1	.	100	95	86
Cc1cccc(CCNC(=O)CCc2nnc3n(Cc4ccccc4)c(=O)c4ccccc4n23)c1	.	100	107	91

Rows are unselected. About 0.83% of those tested had a hit in this group.
